# Compound activity: PubChem BioAssay, ICCB-Longwood Screening Facility, Harvard Medical School
# GIV-Gai inh: GIV-Galpha-i interaction inhibition | P08753 | Galpha-i3/FITC-GIV peptide fluorescence polarization, 90 min; hits give low values; scaled: aluminum fluoride 0%, vehicle 100% | percent of control (FP), % (no concentration beside the values) | 210,000 compounds, 0.42% hits;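 active = replicate mean at 85% of control or lower, very high polarization wells dropped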;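 note: wells of about 15 µL received 100 nL stock; the first replicate is given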
# Target sequence (P08753 whole entry, looked up): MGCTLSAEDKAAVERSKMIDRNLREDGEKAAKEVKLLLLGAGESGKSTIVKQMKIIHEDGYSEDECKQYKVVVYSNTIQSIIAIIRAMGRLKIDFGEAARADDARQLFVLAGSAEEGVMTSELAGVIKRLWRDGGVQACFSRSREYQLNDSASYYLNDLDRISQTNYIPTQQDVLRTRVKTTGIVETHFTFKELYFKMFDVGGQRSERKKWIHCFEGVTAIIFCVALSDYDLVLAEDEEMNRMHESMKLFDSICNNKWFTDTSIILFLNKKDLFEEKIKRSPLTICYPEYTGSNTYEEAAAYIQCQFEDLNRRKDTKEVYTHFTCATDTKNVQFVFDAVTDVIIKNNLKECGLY
# Sa growth inh: blocks Staphylococcus aureus growth. AID 720641. S. aureus RN4220 growth, OD600, 20 h, 42 °C; hits give low values. relative growth, % (test concentration not listed). 170,000 compounds, 0.53% hits;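 active = growth at 42 °C up to 50% and 20 or more points under that at 30 °C, or under 10% at both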;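 note: 300 nL library stock went into each well; scaled to the means of positive and negative controls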
# HCMV UL50-53 inh: disrupts HCMV UL50-UL53 complex binding. inhibition, % (no concentration beside the values). HTRF UL50-UL53 interaction, normalized percent inhibition. 190,000 compounds, 0.15% hits;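 active = both replicates at 50% or more, plus weaker picks with an unusually low signal ratio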;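 note: stock transfer was 100 nL into about 20 µL; 0% = negative control wells and 100% = wells with untagged competitor protein; inactives centre near -12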
# Sa growth inh second temp: further read-out of Sa growth inh, marked with its call; relative growth, %; measured here: growth at 30 °C;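 optical density after 20 h as mean of two plates; 100% = untreated growth and lower means inhibition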
# The depositor's hits bear a star; . = not tested or not shown; & = joins results of further samples.
mol	HCMV UL50-53 inh	Sa growth inh second temp	GIV-Gai inh	Sa growth inh
CC(Oc1ccc(C(C)C)cc1)C(=O)Nc1nccs1 (stereo not given)	.	107	104	100
CC1(C)Cc2[nH]c(=S)c(C#N)cc2CO1	-18	59	106	91
CN(Cc1ccccc1)C(=O)c1ccccc1Cl	-15	93	.	89
CC(=O)O/N=C(\N)c1nccnc1Sc1ccc(Cl)cc1	-9	25	102	12
Cc1ccc(C2C3=C(CC(c4ccccc4O)CC3=O)Nc3onc(C)c32)cc1 (stereo not given)	10	.	107	.
CCOc1ccc(NC(=O)C2CCCN2S(=O)(=O)c2ccc3c(c2)CC(C)N3C(C)=O)cc1 (stereo not given)	-5	.	105	.
O=C(Nc1ccccc1)c1cccnc1	-27	87	.	85
O=C(Nc1nccs1)C1CC(=O)N(CCc2c[nH]c3ccc(Cl)cc23)C1 (stereo not given)	-12	.	102	.
Cc1ccccc1-c1nnc(CN2CCN(c3ccccn3)CC2)o1	2	98	109	100
N#Cc1ccc(NC(=O)CS(=O)(=O)c2ccccc2)cc1	-29	107	106	106
COc1ccc(C(=O)c2c(N)c(-c3nc(-c4ccc5c(c4)OCO5)cs3)c3ccccn23)cc1	4	88	112	101
O=C(CN1C(=O)CSc2ccc(S(=O)(=O)N3CCCCC3)cc21)NCc1ccc(F)cc1Cl	.	104	101	103
O=C(Nc1ccccc1)Nc1c2ccccc2nc(=O)n1Cc1ccccc1	-23	86	102	99
CC1=C(C(N)=O)C(c2cccc(C)c2)n2nc(-c3cccc(C)c3)nc2N1 (stereo not given)	-31	70	106	120
Clc1ccccc1C(c1nnnn1Cc1ccco1)N1CCN(Cc2ccco2)CC1 (stereo not given)	-1	80	107	97

# Later entries
mol	HCMV UL50-53 inh	Sa growth inh second temp	GIV-Gai inh	Sa growth inh
O=C(CN1CC(=O)Nc2ccccc21)Nc1cccc(Cl)c1	6	97	.	99
Cc1ccc(CCNC(=O)C(C)n2nc(C)c3c(C)n(-c4ccc(C)cc4)nc3c2=O)cc1 (stereo not given)	.	84	102	106
CCc1cccc(NC(=O)Cn2c(=O)ccc3cc(S(=O)(=O)N4CCC(C)CC4)ccc32)c1	.	100	105	111
CCOc1ccc(NS(=O)(=O)c2ccc3[nH]cc(C(=O)NCCOC)c(=O)c3c2)cc1	-16	79	100	97
NNC(=O)c1c(O)c2ccccc2[nH]c1=O	-19	97	97	102
O=C(CNC(=O)c1ccc2ccccc2c1)NCc1ccccn1	-35	93	.	111
CCC(C)NC(=O)Cn1c(=O)n(-c2ccc(Cl)c(Cl)c2)c(=O)c2c(C)c(C)sc21 (stereo not given)	.	88	99	98
Cc1noc(-c2ccc(-c3noc(-c4ccc([N+](=O)[O-])c(C)c4)n3)cc2)n1	.	88	103	103
Cc1c(C(=O)NC2CCCc3ccccc32)oc2ccc(S(=O)(=O)N3CC(C)CC(C)C3)cc12 (stereo not given)	.	98	104	119
O=C(NCC1(c2ccccc2)CCCC1)c1ccc(Cl)cc1	-4	93	.	112
CNCC(=O)NC1CC1	-21	90	.	96
CCOC(=O)C1=C(C)N=c2s/c(=C\c3c[nH]c4ccccc34)c(=O)n2C1c1ccc(OCC)c(OCC)c1 (stereo not given)	-12	.	112	.
Cc1ccc(-c2noc(CNc3ccc(Oc4ccccc4)cc3)n2)cc1	.	90	103	101
O=C(CCc1c[nH]c2ccccc12)OCN1C(=O)c2ccccc2C1=O	-17	87	.	99
CCOc1cccc(C(=O)N2CCCCC2c2cccnc2)c1 (stereo not given)	17	98	111	97

# Further compounds
mol	HCMV UL50-53 inh	Sa growth inh second temp	GIV-Gai inh	Sa growth inh
CCC(C(=O)Nc1ccc(C(=O)OC)cc1)n1nc(-c2ccc(C)c(C)c2)ccc1=O (stereo not given)	0	96	110	95
O=C(O)c1c[nH]c(=O)cc1C(F)(F)F	-26	92	102	98
Cc1[nH]c2ccccc2c1C(=O)C(=O)NC1CC(=O)N(c2cccc(F)c2)C1 (stereo not given)	.	81	102	121
COc1cc(-c2nnc(SCC(=O)N3CCCc4ccccc43)o2)cc(OC)c1OC	-3	86	101	112
Cc1ccccc1COc1ccccc1C(=O)O	0	96	.	125
C=CCN(CC=C)S(=O)(=O)c1ccc(NC(=O)Nc2ccccc2)cc1	-8	30	105	53
Cc1cccc(N2CCN(C(=O)Cn3ncc4c5ccccc5n(C)c4c3=O)CC2C)c1 (stereo not given)	-11	90	104	119
CCOC(=O)N1CCc2c(sc3c2c(=O)n(CCc2ccccc2)c(=O)n3Cc2c(F)cccc2Cl)C1	-41	90	103	110
CC(C)(CN=C1NS(=O)(=O)c2ccccc21)CNC(=O)c1ccccc1Cl	13	93	.	107
O=C(Oc1ccc2oc(=O)sc2c1)c1ccccc1	-4	94	107	92
CC1(C)CC(NC(=O)CCCC(=O)O)CC(C)(C)N1	-26	79	100	105
CC1c2cccn2-c2sc3c(c2CN1C(=O)Nc1ccccc1Cl)CCN(C)C3 (stereo not given)	-16	.	109	.
Cc1noc(Cn2c(=O)c3ccccc3n(CC(=O)Nc3ccc(F)cc3)c2=O)n1	-4	.	105	.
CCOc1ccc(N(CC(=O)N2CCN(c3ccccc3)CC2)S(=O)(=O)c2ccc(SC)cc2)cc1	-25	.	101	.
Clc1ccc(-c2csc3c4ncnc-4ncn23)cc1	-6	85	.	101

# Following part:
mol	HCMV UL50-53 inh	Sa growth inh second temp	GIV-Gai inh	Sa growth inh
COC(=O)NN1CC(O)=C(c2nc(-c3ccc(F)cc3)cs2)C1=N	-2	96	.	82
O=C(O)COc1ccccc1/C=N/NC(=O)c1ccccc1	-37	89	.	86
COc1ccc(C(CNC(=O)c2cc(-c3ccccc3)on2)N2CCCC2)cc1 (stereo not given)	2	.	103	.
O=C(/C=C/c1ccccc1)CC(=O)c1ccccc1O	-18	66	117	121
O=c1[nH]c(O)c(C=NC2CCCCCC2)c(=O)[nH]1	7	97	.	91
O=C(NCC1CCCO1)c1cccc2ccccc12 (stereo not given)	-6	80	103	96
O=C(NCCCN1CCCCC1)c1ccc(CS(=O)c2ccc(Cl)cc2)o1 (stereo not given)	-34	91	106	94
O=C1NC(c2cccc(O)c2)c2c(-c3ccccc3)n[nH]c21 (stereo not given)	-25	.	97	.
Cc1ccc2c(C)c(C(=O)N(Cc3ccc(Cl)cc3)C3CCS(=O)(=O)C3)oc2c1 (stereo not given)	-16	79	104	103
O=C(CCN1CCN(c2ccccc2)CC1)N/N=C/c1ccncc1	-22	87	.	89
COc1ccc(C)cc1NC(=O)C(CCSC)NS(=O)(=O)c1ccc2c(c1)oc(=O)n2C (stereo not given)	.	89	98	106
Cc1ccccc1C(=O)Nc1nnc(S(=O)(=O)N2CCCc3ccccc32)s1	2	101	114	109
COc1ccc2oc(=O)c(-c3nc(-c4cc(OC)c(OC)c(OC)c4)no3)cc2c1	.	91	104	124
Cn1c(CCCO)nc2ccccc21	.	87	95	80
Cc1ccc2c(Sc3ccc(Cl)cc3)c(C(=O)O)[nH]c2c1	.	11	101	17

# New compounds follow
mol	HCMV UL50-53 inh	Sa growth inh second temp	GIV-Gai inh	Sa growth inh
O=C(NCc1ccccc1)c1cc(-c2ccncc2)nc2ccccc12	1	93	105	93
CCCSc1nnc2c(n1)OC(c1c(OC)ccc3ccccc13)Nc1ccccc1-2 (stereo not given)	-31	.	112	.
Cc1ccc(-c2csc3nc[nH]c(=S)c23)cc1	-11	80	.	101
Cc1cc(C)cc(OCC(=O)OCC(=O)NC23CC4CC(CC(C4)C2)C3)c1	-34	91	.	129
COc1ccccc1CN1CCN(C2CCN(C(=O)NC(C)C)CC2)C(=O)C1=O	2	87	100&102	113
CCOc1cc(C(=O)Nc2cccc(-c3nc4ccc(C)cc4o3)c2)cc(OCC)c1OCC	-12	.	105	.
CCOC(=O)c1c(NC(=O)CN2C(=O)/C(=C/c3ccccc3Cl)SC2=S)sc2c1CCCC2	4	.	100	.
O=S(=O)(NCC(c1ccco1)N1CCN(c2ccccc2)CC1)c1ccccc1 (stereo not given)	.	91	99	104
CN(C)S(=O)(=O)c1cccc(C(=O)NCC2CCCO2)c1 (stereo not given)	2	103	105	111
O=C(Nc1cccnc1)c1ccccc1O	-13	85	.	108
NC(=O)c1ccccc1OCC(=O)O	10	98	.	86
O=C(NC1CC1)c1ccc(-n2nc(OCc3cccc(F)c3)ccc2=O)cc1	-45	.	99	.
O=C(Nc1nnc(Sc2ccnc3cc(Cl)ccc23)s1)C1CC1	-3	90	99	111
C=CCn1c(SCC(=O)N2CCc3ccccc32)nc2ccccc2c1=O	-4	97	103	108
CSc1sc(C(=O)NN)cc1S(=O)(=O)C(C)C	-14	74	100	86

# Remaining list, next part:
mol	HCMV UL50-53 inh	Sa growth inh second temp	GIV-Gai inh	Sa growth inh
Cn1c(=O)c2c(C(=O)NC3CCCCC3)cc(=O)n(C)c2n(C)c1=O	6	.	101	.
CCN1CCN(c2c(C(=O)c3ccccc3)cnc3ccc(OC)cc23)CC1	-24	82	106	105
COc1ccc(C(=O)CSc2nc3ccc(OC)cc3[nH]2)cc1	.	68	102	80
Cc1cc(C)n2ncc(C(=O)NC3CCCC3)c2n1	6	100	106	98
CCOc1ccc(NC(=O)CCN2C(=S)NC(C)(C)CC2C)cc1 (stereo not given)	-18	93	103	90
Cc1cc(C(=O)OCC(=O)c2cccs2)c2ccccc2n1	1	100	.	90
COc1cc(/C=C/c2nc3cc(Cl)ccc3c(=O)n2-c2cccc(C(F)(F)F)c2)cc(OC)c1OC	.	82	108	111
Cc1ncoc1C(=O)NCCC(c1ccccc1)c1ccccc1	.	88	101	96
CNC(=S)NN1C(C)CCCC1C (stereo not given)	-9	101	101	109
COc1ccc(CNC(=O)c2ccc(CNS(=O)(=O)c3ccc(OC)cc3)cc2)cc1	-13	90	97	114
CN(C1=NC(=O)CS1)c1ccc(Cl)cc1	-2	97	109	99
COc1ccc(-c2cc(C(F)(F)F)n3nc(C(=O)Nc4cccc(C(C)=O)c4)cc3n2)cc1	2	.	100	.
C/C=C/C(=O)N1CCN(c2ccnc3cc(Cl)ccc23)CC1	-2	87	101	103
Cc1ccc(C)c(S(=O)(=O)N2CCN(c3cc(=O)n4nc(-c5ccccc5)sc4n3)CC2)c1	-13	.	101	.
CCOC(=O)C1CCN(c2cc(C)c(C#N)c3nc4ccccc4n23)CC1	-1	82	106	92

# Next part, starting with the last seven of the part before.
mol	HCMV UL50-53 inh	Sa growth inh second temp	GIV-Gai inh	Sa growth inh
CNC(=S)NN1C(C)CCCC1C (stereo not given)	-9	101	101	109
COc1ccc(CNC(=O)c2ccc(CNS(=O)(=O)c3ccc(OC)cc3)cc2)cc1	-13	90	97	114
CN(C1=NC(=O)CS1)c1ccc(Cl)cc1	-2	97	109	99
COc1ccc(-c2cc(C(F)(F)F)n3nc(C(=O)Nc4cccc(C(C)=O)c4)cc3n2)cc1	2	.	100	.
C/C=C/C(=O)N1CCN(c2ccnc3cc(Cl)ccc23)CC1	-2	87	101	103
Cc1ccc(C)c(S(=O)(=O)N2CCN(c3cc(=O)n4nc(-c5ccccc5)sc4n3)CC2)c1	-13	.	101	.
CCOC(=O)C1CCN(c2cc(C)c(C#N)c3nc4ccccc4n23)CC1	-1	82	106	92
O=C(CS(=O)(=O)Nc1cccc(C(F)(F)F)c1)Nc1cccc(C(F)(F)F)c1	42	33	104	47
Cc1ccccc1NC(=O)CSC1=Nc2ccccc2C2=NC(CCC(=O)NCc3ccccc3)C(=O)N12 (stereo not given)	9	86	102	103
CNC(=O)c1nn(-c2ccccc2Cl)nc1CO	-13	.	106	.
Clc1ccc(COc2cccc3ccc(N4CCCC4)nc23)cc1	-22	.	103	.
COc1ccc(NC(=O)Nc2sc3nc4n(c(=O)c3c2C)CCC(C)CC4)cc1OC (stereo not given)	-30	91	99	113
CCN(CC)CCNc1cc(C)c2cccc(C)c2n1	-10	93	.	91
CCOC(=O)CSc1nn(C)c2nc3c(c(=O)n12)C(CC)(CC)Cc1ccccc1-3	-28	.	104	.
CCCN1C(=O)/C(=C/c2ccc(C)o2)NC1=S	-56	72	112	82
Cc1ccc(NS(=O)(=O)CC23CCC(CC2=O)C3(C)C)c(Br)c1 (stereo not given)	19	104	.	91
Cc1c(-c2cc(C(=O)NC3CC3)c3ccccc3n2)cnn1-c1ccc(F)cc1	-38	.	101	.
Fc1ccc([C@@H]2CCNC[C@H]2COc2ccc3c(c2)OCO3)cc1	-30&-18&-6&-4&-19	86&83&102	101&106	91&91&99
O=C(CCn1cnnn1)Nc1cc(C(F)(F)F)cc(C(F)(F)F)c1	4	76	101	78
O=c1c(-c2cc3ccccc3o2)[n+]([O-])c2ccccc2n1O	-80	40	9.9*	96
CCOc1ccc(CNC(=O)Cn2cc3c(n2)-c2c(oc(C(=O)N4CCCC4)c2C)CC3)cc1	.	95	107	120
O=C(O)/C=C/C(=O)NCC1CC1	6	102	97	98
CCCn1nnc(NCc2ccc(-c3cc(Cl)cc(Cl)c3)o2)n1	-4	.	100	.

# 3 of the entries above in order of their number in Sa growth inh, high to low.
Compound | Sa growth inh
O=C(O)/C=C/C(=O)NCC1CC1 | 98
CCCN1C(=O)/C(=C/c2ccc(C)o2)NC1=S | 82
O=C(CS(=O)(=O)Nc1cccc(C(F)(F)F)c1)Nc1cccc(C(F)(F)F)c1 | 47
